Ba CapD inh – Bacillus anthracis CapD inhibitors, primary screen, biochemical, fluorescence intensity; actives 0.23% (n = 140,000); CapD gamma-glutamyltranspeptidase (Bacillus anthracis Ames Ancestor); purified CapD enzyme, fluorescence intensity read-out; hits give low values; some hits fall short of the stated cut; z-score (no concentration beside the values);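 active = z-score under -4 in either of two replicates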;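 also: stock transfer was 100 nL into about 40 µL; score is relative to mean and spread of the plate; one replicate is shown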
AID504770 – growth inhibition of E. coli YBA685, primary screen, V. cholerae RctB inhibitors. E. coli YBA685 rctB-dependent plasmid, OD600 growth, 3 h; hits give low values. z-score (concentration not given with the values). actives 0.27% (n = 130,000). AID 504770, 2011;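 active = z-score under -2 on both plates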;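 also: wells of about 30 µL received 100 nL stock; score is relative to mean and SD of the test wells; the first replicate is given; strong numbers were not always called active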
* hit, by the source's call; nt = not tested or not shown; & = joins results of further samples.

| smiles | Ba CapD inh | AID504770 |
| --- | --- | --- |
| O=C(NCCC(=O)N1CCCc2ccccc21)c1ccco1 | nt | 2 |
| O=C(NCc1ccc(F)cc1)c1nn2c(c1Br)NC(c1cccs1)CC2C(F)(F)F (stereo unspecified) | -0.24 | nt |
| CCCCOc1ccccc1C1NC(=O)NC(C)=C1C(=O)OCCc1ccccc1 (stereo unspecified) | 0.15 | nt |
| N#Cc1cccc(N2C(=O)C=CC2=O)c1 | -0.87 | -2.8* |
| CCN(CC)C(=O)CN1C(=O)C2(Nc3ccccc3C(=O)N2c2ccccc2)c2cc(Br)ccc21 (stereo unspecified) | -0.36 | nt |
| O=C(O)/C=C/C(=O)Nc1ccc(-c2csnn2)cc1 | -0.58 | -0.3 |
| O=C(CN1C(=O)C2C3C=CC(C3)C2C1=O)NCCN1CCCc2ccccc21 (stereo unspecified) | -0.58 | nt |
| CC(C)SC1=NC(C)(C)C=C(/C=C/c2ccc(Cl)cc2Cl)N1 | -0.01 | nt |
| CCCCCC1C/C(=N\O)C=C(C)C1C(=O)OC (stereo unspecified) | nt | -0.85 |
| COc1cccc2cc(C(=O)C3=C(O)C(=O)N(CCCn4ccnc4)C3c3ccc(F)cc3)oc12 (stereo unspecified) | -0.6 | 0.3 |
| CCNc1nc(OC)nc(Oc2ccc(OCC(=O)OC)nn2)n1 | -0.57 | -1.5 |
| CCNC(=S)N1CCN(CCN=CC2=C(O)CC(c3ccccc3)CC2=O)CC1 (stereo unspecified) | -0.36 | 1.5 |
| O=C(/C=C/c1cccs1)NCCc1ccccc1 | -1.1 | -0.8 |
| CC1(C)CN(c2cc(C(F)(F)F)cc(C(F)(F)F)c2)C1=O | -0.58 | 0 |
| O=C(Nc1ccc2c(c1)OCCO2)c1cnccn1 | -0.71 | nt |
| CCn1c(=O)c2c(c3ccccc31)Oc1ccc(C)cc1N=C2C | 0.8 | 0.65 |
| COc1ccc(N2C(=O)CC(Sc3nc(N)c(C#N)c(-c4ccc(C)cc4)c3C#N)C2=O)cc1 (stereo unspecified) | 5.4 | nt |
| Cc1ccc2cc(CCNS(=O)(=O)c3ccccc3)c(=O)[nH]c2c1 | 12 | -0.5 |
| O=C(CCC1CCCCC1)Nc1ccc(S(=O)(=O)Nc2ncccn2)cc1 | 0.04 | -0.7 |
| Cc1ccsc1CNC(C)c1ccccc1 (stereo unspecified) | -0.22 | -0.35 |
| Cc1nnc2sc(-c3cccc(NC(=O)c4ccco4)c3)nn12 | 0.19 | 0.1 |
| COc1ccc(CCNC(=O)CSc2nc(C)c(C)c(=O)[nH]2)cc1OC | nt | -0.9 |
| CCOc1cccc(C(=O)NN2CCOCC2)c1 | -0.065 | 1.2 |
| Cc1nn2c(=O)cc(CSCc3ccco3)nc2s1 | -0.12 | -0.3 |
| Cc1ccc(O)c(C2=Nc3ccccc3N=C(c3ccc(Cl)cc3)C2)c1 | -0.22 | nt |
| Nc1nonc1-c1noc(-c2ccc(COc3ccccc3Br)cc2)n1 | -0.06 | nt |
| O=C(NCc1n[nH]c(=O)c2ccccc12)C1CC(=O)N(c2ccccc2)C1 (stereo unspecified) | nt | -0.5 |
| Cc1ccc(NC(=O)CNS(=O)(=O)c2ccccc2)c(C(=O)c2ccccc2)c1 | -1 | 0.3 |
| Cc1csc(C(C#N)C(=O)CSc2nnc(NCc3ccccc3)s2)n1 (stereo unspecified) | nt | -0.1 |
| Cc1ccc(/C=C/C(=O)NCc2ccncc2)cc1 | 0.48 | -0.7 |

Individual results from the results shown.
Ba CapD inh with `CCCCOc1ccccc1C1NC(=O)NC(C)=C1C(=O)OCCc1ccccc1` (stereo unspecified) reads 0.15
Ba CapD inh with `Cc1ccc(/C=C/C(=O)NCc2ccncc2)cc1` reads 0.48

(continued)
| smiles | Ba CapD inh | AID504770 |
| --- | --- | --- |
| C=C1C(C(=O)N2c3ccccc3CC2C)C1C(=O)N1c2ccccc2CC1C (stereo unspecified) | nt | -0.3 |
| Cn1c(SCC(=O)c2ccc3c(c2)OCCO3)nnc1-c1ccc2ccccc2c1 | 0.41 | 0 |
| CCCOc1ccc(C2C(C(=O)OCCOc3ccccc3)=C(C)NC3=C2C(=O)CCC3)cc1OC (stereo unspecified) | 9.8 | nt |
| Cc1c(C(=O)NCc2ccc(F)cc2)sc2ncnc(N3CCC(C)CC3)c12 | 1.1 | nt |
| CC(C)(C#CC(O)(c1ccccc1)c1ccccc1)N1CCCCC1 | 0.035 | -0.15 |
| Cc1ccc(-c2nc(-c3ccc(Cl)cc3)[nH]c2-c2ccccc2)cc1C | 2.1 | nt |
| O=C(/C=C/c1ccc(Br)o1)OCC(=O)c1ccccc1 | nt | -0.05 |
| CCOc1cc2[nH]c(=O)n(Cc3cccc(OC)c3)c(=O)c2cc1OCC | 0.64 | -0.75 |
| CCn1cc(C2=NCC(C)O2)c2ccccc21 (stereo unspecified) | nt | 1.1 |
| COc1cnc(NS(=O)(=O)c2ccc(N)cc2)nc1 | -0.44&-0.42 | -0.8 |
| CCOC(=O)c1c(CSc2nc(C)c(CC)c(C)c2C#N)n(C)c2cc(Br)c(OC(C)=O)cc12 | -0.11 | nt |
| CCOC(=O)c1nc2nc(C)cc(=O)n2[nH]1 | -0.11 | nt |
| C=CCN1C(=O)CC(C(=O)Nc2ccc(C(=O)OC)cc2)SC1=Nc1ccc(Cl)cc1 (stereo unspecified) | -0.88 | nt |
| O=C(Nc1nncs1)c1ccccc1 | -0.15 | -0.8 |
| CCOC(=O)c1cccc(NC(=O)C2CCCN(c3ncnc4onc(C)c34)C2)c1 (stereo unspecified) | 0.4 | -0.35 |
| CN(C)c1ccc(CN2CCN(S(=O)(=O)c3ccccc3Cl)CC2)cc1 | 0.47 | nt |
| O=S(=O)(/N=C(\Nc1ccccn1)c1ccccc1)c1ccccc1 | -0.44 | 0 |
| CN(C)S(=O)(=O)Oc1cccc(C(=O)Nc2cccc(C(F)(F)F)c2)c1 | 0.27 | nt |
| Cc1cc(I)cn2cc(-c3ccc(F)cc3)nc12 | -0.15 | nt |
| COc1ccc(Sc2cc(CS(=O)(=O)c3ccccc3)nc(C)n2)cc1 | 0.14 | nt |
| CCc1ccc(S(=O)(=O)N2CC(=O)Nc3ccccc32)cc1 | 0.64 | 0.1 |
| COc1cc2c(cc1OC)C(C)N(C(=O)c1cc(S(=O)(=O)N3CCCC3)cn1C)CC2 (stereo unspecified) | -0.045 | -0.25 |
| O=C(Nc1ccc2oc(-c3ccc(F)cc3Cl)nc2c1)c1cc([N+](=O)[O-])cc([N+](=O)[O-])c1 | 0.71 | nt |
| Cc1cc(C)c(C(=O)COC(=O)C2CSC3(C)CCC(=O)N23)cc1C (stereo unspecified) | nt | 1.1 |
| O=C(COC(=O)c1cccs1)Nc1ccccc1 | nt | -0.1 |
| CN1C(=O)C(=Cc2ccccc2)C(=O)N(C)C1=O | 0.66 | 0.55 |
| O=C(COC(=O)C1CC2CCCC(C1)C2=O)c1ccccc1 (stereo unspecified) | nt | -0.5 |
| COc1ccc(OCC(=O)Nc2ccc(CN3CCOCC3)cc2)cc1 | -1.5 | 0.35 |
| Cc1ccccc1Nc1nc(N)nc(CSc2nncn2-c2ccccc2)n1 | nt | -0.3 |
| O=c1c(O)cc2c(O)oc3c(=O)c(O)cc4c3c2c1CC=4O | 1 | nt |

By substructure: the compounds so far with a furan ring, fused or not (five)
| smiles | Ba CapD inh | AID504770 |
| --- | --- | --- |
| O=C(NCCC(=O)N1CCCc2ccccc21)c1ccco1 | nt | 2 |
| COc1cccc2cc(C(=O)C3=C(O)C(=O)N(CCCn4ccnc4)C3c3ccc(F)cc3)oc12 (stereo unspecified) | -0.6 | 0.3 |
| Cc1nnc2sc(-c3cccc(NC(=O)c4ccco4)c3)nn12 | 0.19 | 0.1 |
| Cc1nn2c(=O)cc(CSCc3ccco3)nc2s1 | -0.12 | -0.3 |
| O=C(/C=C/c1ccc(Br)o1)OCC(=O)c1ccccc1 | nt | -0.05 |

(listing goes on)
| smiles | Ba CapD inh | AID504770 |
| --- | --- | --- |
| COc1cccc(NC(=S)C(C#N)=C2N(C)c3ccccc3N2C)c1 | nt | 2 |
| O=C(OCc1ccc(Cl)cc1)c1cnc(N2CCCCC2)nc1C(F)(F)F | 0.89 | 0.05 |
| CCOC(=O)CCCN1C(=O)/C(=C/c2cccc(OC)c2)SC1=S | -0.065 | -0.3 |
| COc1ccc(CN2C(=O)CC(C(=O)NCCc3ccc(S(N)(=O)=O)cc3)SC2=Nc2ccccc2)cc1 (stereo unspecified) | -0.21 | nt |
| CCOc1ccc(S(=O)(=O)N2CCN(c3ccc(F)cc3)CC2)cc1 | 0.67 | 0.1 |
| CCSC1=C(C#N)C(C)C(C#N)C(=O)N1 (stereo unspecified) | -0.21 | 1 |
| CCc1ccc2ncc(C(=O)c3ccccc3)c(N3CCOCC3)c2c1 | -1.9 | -0.7 |
| Cn1nc(-c2ccc(CO)s2)cc1C(F)(F)F | -0.4 | -1.1 |
| CCOC(=O)c1oc2ccc(OCC)cc2c1C | nt | -0.5 |
| O=C(N=S1CCC2(C1)OCCO2)c1cc(C(F)(F)F)cc(C(F)(F)F)c1 (stereo unspecified) | -0.24 | -0.3 |
| O=C(NCc1ccccn1)c1ccc(-n2cc(-c3cnccn3)cn2)cc1 | 23 | nt |
| O=C1c2ccccc2C(Nc2ccccc2)N1Cc1ccc2c(c1)OCO2 (stereo unspecified) | 0.14 | 0.2 |
| CN(C)N1C(=O)CC(N2CCCC2)C1=O (stereo unspecified) | nt | 0.25 |
| C=C(C)Cn1c(CCCO)nc2ccccc21 | 0.96 | -0.05 |
| CCOC(=O)c1c(C)n(-c2ccc(I)cc2)c2ccc(O)cc12 | -1.2 | nt |
| CCOc1ccc2nc(NC(=O)C3(S(=O)(=O)c4ccc(C)cc4)CC3)sc2c1 | -0.21 | 0 |
| CC1(C)CC(=O)c2sc(NC(=O)c3ccc(S(C)(=O)=O)cc3)nc2C1 | nt | -0.6 |
| COc1ccccc1N1CCN(C(=O)CCCCCn2c(=S)[nH]c3cc4c(cc3c2=O)OCO4)CC1 | 0.04 | 0.15 |
| CCN(CC)S(=O)(=O)c1ccc2[nH]cc(C(=O)N3CCC(C)CC3)c(=O)c2c1 | 1.1 | -0.25 |
| Cc1cc(C)nc(NS(=O)(=O)c2ccc(NC(=O)c3sc4nc(-c5ccccc5)cc(C(F)(F)F)c4c3N)cc2)n1 | -0.96 | nt |
| NC(=O)NCC(=O)NCC1COc2ccccc2O1 (stereo unspecified) | nt | 0.2 |
| CN(c1ccc(F)cc1)S(=O)(=O)c1ccc(Cl)c(C(=O)NCc2ccco2)c1 | nt | -1.1 |
| COc1cc2cc(Oc3ccc4ccc(=O)oc4c3)c(=O)oc2cc1OC(C)=O | 6.7 | -0.3 |
| O=c1ccc(=O)n(CN2CCC(Cc3ccccc3)CC2)[nH]1 | -0.92 | -0.5 |
| O=C(N/N=C/c1cccc(Oc2cccc(C(F)(F)F)c2)c1)C1CC1c1ccccc1 (stereo unspecified) | -0.92 | nt |
| COC(=O)c1cc(OC)c(OC)cc1NC(=O)Nc1ccccc1 | 42 | nt |
| O=c1c2cn[nH]c2nc2ccccn12 | 85 | 1.1 |
| O=C(Oc1ccc2cc(Br)ccc2c1)c1cccnc1Cl | -0.34 | -0.8 |
| Oc1ccc2ccccc2c1C=NCc1cn2ccccc2n1 | -0.36 | -0.6 |
| Cn1cc(-c2ccc(C(=O)NCc3cccnc3)cn2)cn1 | 2.4 | nt |
| COc1ccc2cnn(-c3ccccc3)c(=O)c2c1OC | 0.77 | -0.95 |
| CCOC(=O)N1CCC(NS(=O)(=O)c2ccc3c(c2)CN(C(=O)C(F)(F)F)CC3)CC1 | -0.8 | nt |
| N#Cc1c(-c2ccccc2)cc[nH]c1=O | 23 | -0.35 |
| Cn1cccc1/C=N/NC(=O)CSc1nnc(-c2ccccc2)n1-c1ccccc1 | -0.51 | -0.7 |
| CCOC(=O)CN1CCC(c2cc(-c3ccc(Cl)cc3)n[nH]2)CC1 | 0.18 | -0.55 |
| Cc1ccccc1Nc1nccc(N(C)C)c1C#N | -0.35 | -0.45 |
| Clc1ccc(-n2ncc3c(Cl)ncnc32)cc1 | nt | -0.55 |
| N#Cc1ccc(COc2nncc(Cl)c2Cl)cc1 | -0.035 | -0.4 |
| CC(=O)Nc1c(Cl)c(Cl)c(Cl)c(Cl)c1Cl | 0.47 | nt |
| CN(C)c1ccc(/C=C/C(O)=C2/C(=O)NC3(C)CC2c2ccccc2O3)cc1 (stereo unspecified) | -1.2 | 1.1 |
| O=C(NCCCN1CCCC1)c1cc(-c2ccncc2)nc2ccccc12 | 0.34 | -1.2 |
| Cc1cc(C)n(CC(O)CN2c3ccccc3Sc3ccccc32)n1 (stereo unspecified) | 1.2 | -0.2 |
| COc1ccc(N2C(=O)/C(=C/c3ccc(-c4ccc(Br)cc4)o3)C=C2c2ccccc2)cc1 | -0.77 | nt |
| COC(=O)c1ccc(OC)c(Br)c1 | 0.11 | -0.6 |
| CC(C)(CC(=O)O)CC(=O)N1CCCN(c2nc3ccc(Cl)cc3s2)CC1 | 0.035 | 0.2 |
| CCN1C=NS(=O)(=O)c2ccc(C)cc21 | -0.09 | -0.55 |
| CN(C)C(=O)c1ccccc1-c1ccccc1C(=O)O | 0.2 | -0.55 |
| Nc1nc2ccccc2n1Cc1ccccc1 | -0.12 | -0.8 |
| CC(C)NC(=O)CN1CCN(C(=O)c2ccc(-c3ccccn3)s2)CC1 | 1.5 | nt |
| c1nc(NC2CCCC2)c2[nH]cnc2n1 | -0.52 | -0.5 |
| N#Cc1c(C(F)(F)F)cc(=O)[nH]c1SCc1nc(-c2ccc(F)cc2)no1 | nt | 0.1 |
| FC(F)(F)c1cc(Nc2nc3ccccc3s2)cc(C(F)(F)F)c1 | 0.35 | nt |

Arranged by length of the SMILES (descending): three of the compounds above
| smiles | Ba CapD inh | AID504770 |
| --- | --- | --- |
| N#Cc1c(C(F)(F)F)cc(=O)[nH]c1SCc1nc(-c2ccc(F)cc2)no1 | nt | 0.1 |
| Cc1ccccc1Nc1nccc(N(C)C)c1C#N | -0.35 | -0.45 |
| Nc1nc2ccccc2n1Cc1ccccc1 | -0.12 | -0.8 |

Source: PubChem (ICCB-Longwood Screening Facility, Harvard Medical School)
